Myc binder – c-Myc (human) binding. calls only. AID 624141. 17,000 compounds, 1.5% hits. small molecule microarray, His-c-Myc binding, anti-His fluorescence;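 active means spot fluorescence over background with P-value below 7% in all four replicate spots, showing protein binding; compounds were printed on slides so no solution concentration is given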;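 further: score is binary with 100 for all four spots passing and 0 otherwise; about 2 pmol printed per array spot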
Target sequence (P01106 whole entry, looked up): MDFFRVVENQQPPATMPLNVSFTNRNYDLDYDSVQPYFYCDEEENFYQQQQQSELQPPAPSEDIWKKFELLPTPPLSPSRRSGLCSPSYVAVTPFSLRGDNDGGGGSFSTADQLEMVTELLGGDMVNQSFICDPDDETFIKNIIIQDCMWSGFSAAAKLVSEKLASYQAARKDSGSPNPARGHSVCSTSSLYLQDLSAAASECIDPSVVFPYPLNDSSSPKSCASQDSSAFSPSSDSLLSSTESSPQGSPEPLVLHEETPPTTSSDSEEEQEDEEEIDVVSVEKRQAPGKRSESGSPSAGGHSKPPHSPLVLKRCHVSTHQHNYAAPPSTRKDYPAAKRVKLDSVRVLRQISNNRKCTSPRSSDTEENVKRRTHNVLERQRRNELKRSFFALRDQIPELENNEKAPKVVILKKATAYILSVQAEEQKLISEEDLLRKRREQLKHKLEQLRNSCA
p53 mut binder – binders of human mutant p53 | AID 624136 | 17,000 compounds, 0.4% hits | small molecule microarray binding, anti-GST fluorescence | calls only;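 active means compounds whose four printed spots each glow above background more than chance allows, each with a p-value under 7%; compounds were printed on slides so no solution concentration is given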;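 further: about 2 pmol printed per array spot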
ID4 SMM – binders of human ID4 protein; P47928; 31,000 compounds, 1.2% hits; calls only; small molecule microarray, Flag-ID4 binding, fluorescence F/B;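 active means spot signal over background at p below 0.07 in all four prints; compounds were printed on slides so no solution concentration is given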;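 further: a binder raises fluorescence above local background on the spot; about 2 pmol printed per array spot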
Target sequence (P47928 whole entry, looked up): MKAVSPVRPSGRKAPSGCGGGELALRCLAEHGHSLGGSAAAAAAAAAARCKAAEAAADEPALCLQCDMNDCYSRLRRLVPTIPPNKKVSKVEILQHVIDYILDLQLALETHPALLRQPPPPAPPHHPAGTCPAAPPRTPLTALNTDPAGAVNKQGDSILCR
STAT3 binder – binders of human STAT3. calls only. P40763. AID 624138. 17,000 compounds, 0.2% hits. Small molecule microarray, His-STAT3 binding, anti-His fluorescence;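 active means compounds whose four printed spots each show fluorescence over background unusually high for their array block, chance value under 7%; compounds were printed on slides so no solution concentration is given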;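 further: about 2 pmol printed per array spot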
Calls only; i = inactive; . = no result given; + = active, no number. These rows are one share of the data. The share of hits here may be higher or lower than overall.

Results follow in this order: Myc binder	p53 mut binder	ID4 SMM	STAT3 binder
Cc1ccc(S(=O)(=O)N2CCOCC2)cc1NC(=O)c1cccc(S(=O)(=O)N2CCCC2)c1
    i	i	i	i
O=C(CCS(=O)(=O)c1ccc2ccccc2c1)Nc1ccccc1
    i	i	i	i
C[C@H]1CN([C@@H](C)CO)C(=O)Cc2cc(NC(=O)NC3CCCCC3)ccc2O[C@H]1CN(C)Cc1ccc2c(c1)OCO2
    i	i	i	i
C[C@@H]1CN([C@@H](C)CO)C(=O)c2cc(NC(=O)C3CCCCC3)ccc2O[C@@H](C)CCCCO[C@@H]1CN(C)Cc1ccc(C(=O)O)cc1
    i	i	i	i
Cc1ccc(-c2nnc(SCC(=O)Nc3c(C)cc(C)cc3C)o2)cc1
    i	i	i	i
C[C@@H]1CN([C@@H](C)CO)C(=O)c2cccc(NC(=O)Nc3ccc(C(F)(F)F)cc3)c2O[C@@H]1CN(C)Cc1ccc(C(=O)O)cc1
    i	i	i	i
CC1CCc2sc3ncnc(NCCN4CCOCC4)c3c2C1 (stereo not drawn)
    i	i	i	i
COc1ccc(S(=O)(=O)N(C)C[C@@H]2Oc3ncc(C#Cc4ccccc4)cc3C(=O)N([C@H](C)CO)C[C@@H]2C)cc1
    i	i	i	i
C[C@@H]1CN([C@@H](C)CO)C(=O)c2cccc(N(C)C)c2O[C@H]1CN(C)Cc1ccc(C(=O)O)cc1
    i	i	i	i
COc1ccc(CN(C)C[C@@H]2Oc3ccc(NC(=O)C4CC4)cc3CC(=O)N([C@H](C)CO)C[C@H]2C)cc1
    i	i	i	i
COCCCNC(=O)[C@]1(CCS(=O)(=O)c2ccccc2)N=C(c2ccc(OCCCO)cc2)O[C@@H]1c1ccccc1
    i	i	i	i
O=C1C=CC(O)(/C=C/C(=O)OC[C@H]2O[C@@H](Oc3ccc(O)cc3)[C@H](O)[C@@H](OC(=O)/C=C/C3(O)C=CC(=O)C=C3)[C@@H]2O)C=C1
    i	i	i	i
COc1ccc(S(=O)(=O)N(C)C[C@@H]2Oc3c(NC(=O)c4ccncc4)cccc3C(=O)N([C@@H](C)CO)C[C@H]2C)cc1
    i	i	i	i
COC(=O)[C@]1(C)CCC[C@@]2(C)[C@H]1CC=C(C)[C@@H]2CCc1ccoc1
    i	i	.	i
N#Cc1c(NC(=O)COc2ccc(C(=O)NC3CCCCC3)cc2)sc2c1CCC2
    i	i	i	i
C[C@@H]1CN([C@@H](C)CO)C(=O)c2cc(NS(=O)(=O)c3cccs3)ccc2O[C@H]1CN(C)C(=O)Nc1ccc2c(c1)OCO2
    i	i	i	i
O=C(O)CCc1nn2c3ccccc3nc2n(-c2ccccc2)c1=O
    i	i	i	i
COC(=O)c1cn(CC(=O)N2CCN(c3ccccc3)CC2)nn1
    i	i	.	i
CC1(C)CC[C@]2(C(=O)O[C@@H]3O[C@H](CO)[C@@H](O)[C@H](O)[C@H]3O)CC[C@]3(C)C(=CCC4[C@@]5(C)C[C@@H](O)[C@H](O)[C@@](C)(CO)C5CC[C@]43C)C2[C@@H]1O (stereo partly drawn)
    i	i	.	i
Cc1cc(C)n2nc(SCC(=O)c3ccc4c5c(cccc35)CC4)nc2n1
    i	i	i	i
C[C@@H]1CN([C@H](C)CO)C(=O)Cc2cc(NC(=O)CCN3CCOCC3)ccc2O[C@H]1CN(C)Cc1ccc(-c2ccccc2)cc1
    i	i	i	i
COc1ccc(S(=O)(=O)N(C)C[C@H]2Oc3c(NC(=O)c4cc(C)nn4C)cccc3C(=O)N([C@H](C)CO)C[C@H]2C)cc1
    i	i	i	i
COc1ccc(CN(C)C[C@H]2Oc3ccc(NC(=O)Cc4cn(C)c5ccccc45)cc3CC(=O)N([C@@H](C)CO)C[C@@H]2C)cc1
    i	i	i	i
O=C(NC1CCS(=O)(=O)C1)c1ccc(S(=O)(=O)NCC2CCCO2)cc1 (stereo not drawn)
    i	i	i	i
CC(C)NC(=O)Nc1cccc2c1O[C@@H](CN(C)S(=O)(=O)c1cccs1)[C@@H](C)CN([C@H](C)CO)C2=O
    i	i	.	i
COc1c(C(O)CC(C)C)ccc2c1C(=O)OCc1cc(C)cc(O)c1O2 (stereo not drawn)
    i	i	i	i
COc1ccc(S(=O)(=O)N(C)C[C@H]2Oc3ccc(NC(=O)Cn4cnnn4)cc3C(=O)N([C@H](C)CO)C[C@H]2C)cc1
    i	i	i	i
O=c1nc(NCc2ccco2)sc2ncccc12
    i	i	i	i
O=C(Cn1nnc2sc3c(c2c1=O)CCCC3)NCc1ccco1
    +	i	i	i
Cc1noc(C)c1S(=O)(=O)N(C)C[C@H]1OCCCC[C@@H](C)Oc2ccc(NC(=O)NC(C)C)cc2C(=O)N([C@@H](C)CO)C[C@@H]1C
    i	i	i	i
C[C@@H]1CN([C@@H](C)CO)C(=O)c2cc(NS(=O)(=O)c3ccc(Cl)cc3)ccc2O[C@H]1CN(C)C(=O)Nc1ccc(F)cc1
    i	i	i	i
CS(=O)(=O)N(CC(=O)Nc1ccccc1C(F)(F)F)C1CCCCC1
    i	i	i	i
OC1C=CC(O)C23OC12C(O)C=CC31Oc2cccc3cccc(c23)O1 (stereo not drawn)
    i	i	i	i
O=C(CSc1ncnc2nc[nH]c12)N1CCOCC1
    i	i	i	i
C[C@@H]1CCCCO[C@@H](CN(C)C(=O)C2CCCCC2)[C@@H](C)CN([C@@H](C)CO)C(=O)c2cc(N(C)C)ccc2O1
    i	i	i	i
Cc1noc(C)c1NC(=O)N(C)C[C@H]1Oc2ccc(NC(=O)Cc3ccccc3)cc2C(=O)N([C@H](C)CO)C[C@@H]1C
    i	i	i	i
COc1c(CO)c(O)cc2c1C(=O)CCC2O (stereo not drawn)
    i	i	i	i
C[C@@H]1CN([C@H](C)CO)C(=O)CCCn2nncc2CO[C@@H]1CN(C)S(=O)(=O)c1ccc2ccccc2c1
    i	i	i	i
CNC[C@@H]1OCCCC[C@@H](C)Oc2ccc(NC(=O)C3CCCCC3)cc2C(=O)N([C@H](C)CO)C[C@H]1C
    i	i	i	i
C[C@@H]1CN([C@@H](C)CO)C(=O)c2cc(NS(=O)(=O)c3ccccc3)ccc2O[C@@H](C)CCCCO[C@@H]1CN(C)C(=O)c1ccncc1
    i	i	i	i

Arranged by molecular weight (highest first): part of the list above.
Results follow in this order: Myc binder	p53 mut binder	ID4 SMM	STAT3 binder
C[C@@H]1CN([C@@H](C)CO)C(=O)c2cc(NS(=O)(=O)c3ccccc3)ccc2O[C@@H](C)CCCCO[C@@H]1CN(C)C(=O)c1ccncc1
    i	i	i	i
C[C@@H]1CN([C@@H](C)CO)C(=O)c2cc(NS(=O)(=O)c3ccc(Cl)cc3)ccc2O[C@H]1CN(C)C(=O)Nc1ccc(F)cc1
    i	i	i	i
Cc1noc(C)c1NC(=O)N(C)C[C@H]1Oc2ccc(NC(=O)Cc3ccccc3)cc2C(=O)N([C@H](C)CO)C[C@@H]1C
    i	i	i	i
C[C@@H]1CCCCO[C@@H](CN(C)C(=O)C2CCCCC2)[C@@H](C)CN([C@@H](C)CO)C(=O)c2cc(N(C)C)ccc2O1
    i	i	i	i
C[C@@H]1CN([C@H](C)CO)C(=O)CCCn2nncc2CO[C@@H]1CN(C)S(=O)(=O)c1ccc2ccccc2c1
    i	i	i	i

Carrying on:
Results follow in this order: Myc binder	p53 mut binder	ID4 SMM	STAT3 binder
COc1ccc(S(=O)(=O)Nc2ccc3c(c2)C(=O)N([C@@H](C)CO)C[C@@H](C)[C@H](CN(C)S(=O)(=O)c2ccccc2)O3)cc1
    i	i	.	i
CCOC(=O)c1c(NC(=S)N(C)Cc2c(C)nn(C)c2C)sc2c1CCCCCC2
    i	i	+	i
O=C(NCC1CCCO1)c1ccccc1S(=O)(=O)c1ccc([N+](=O)[O-])cc1 (stereo not drawn)
    i	i	i	i
C[C@@H]1CN([C@H](C)CO)C(=O)Cc2cc(NC(=O)C3CC3)ccc2O[C@H]1CN(C)S(=O)(=O)c1cn(C)cn1
    i	i	i	i
C[C@@H]1CC[C@]2(C(=O)O[C@@H]3O[C@H](CO)[C@@H](O)[C@H](O)[C@H]3O)CC[C@]3(C)C(=CCC4[C@@]5(C)C[C@@H](O)[C@H](O)C(C)(C)C5CC[C@]43C)C2[C@]1(C)O (stereo partly drawn)
    i	i	i	i
CNC[C@H]1Oc2c(NS(=O)(=O)c3ccc(Cl)cc3)cccc2C(=O)N([C@H](C)CO)C[C@@H]1C
    i	i	i	i
CC(=O)NCCc1c[nH]c2ccc(O)cc12
    i	i	i	i
C[C@H](CO)N1C[C@H](C)[C@H](CN(C)C(=O)NC2CCCCC2)Oc2ccc(NC(=O)Nc3ccc(F)cc3)cc2CC1=O
    i	i	i	i
COc1ccc(NC(=O)N(C)C[C@H]2Oc3c(cccc3N(C)C)C(=O)N([C@H](C)CO)C[C@H]2C)cc1
    i	i	i	i
C[C@@H]1CN([C@H](C)CO)C(=O)c2cccc(NC(=O)C3CCOCC3)c2O[C@@H]1CN(C)Cc1ccccc1
    i	i	i	i
COc1ccc(S(=O)(=O)Nc2ccc3c(c2)CC(=O)N([C@@H](C)CO)C[C@@H](C)[C@H](CN(C)CC2CC2)O3)cc1
    i	i	i	i
CC(C)C(=O)Nc1sc2c(c1C(=O)Nc1cccnc1)CCCC2
    i	i	i	i
COc1ccc(S(=O)(=O)N(C)C[C@H]2Oc3ccc(NS(C)(=O)=O)cc3CC(=O)N([C@H](C)CO)C[C@H]2C)cc1
    i	i	i	i
C[C@H](CO)N1C[C@H](C)[C@@H](CN(C)C(=O)Nc2ccc(C(F)(F)F)cc2)Oc2ccc(NS(=O)(=O)c3ccc(F)cc3)cc2C1=O
    i	i	.	i
C[C@H](CO)N1C[C@H](C)[C@H](CN(C)S(=O)(=O)c2ccc(Cl)cc2)Oc2ccc(NC(=O)NC3CCCCC3)cc2CC1=O
    i	i	i	i
COc1c(OC)c2c(C)cccc2oc1=O
    i	i	i	i
C[C@@H]1CN([C@H](C)CO)C(=O)Cc2cc(NC(=O)Cc3ccccc3)ccc2O[C@@H]1CN(C)Cc1ccncc1
    i	i	i	i
C[C@H]1CN([C@@H](C)CO)C(=O)c2cc(NS(=O)(=O)c3cccs3)ccc2O[C@@H]1CN(C)C(=O)Nc1ccc(F)cc1
    i	i	i	i
Cc1noc(C)c1S(=O)(=O)Nc1ccc2c(c1)C(=O)N([C@@H](C)CO)C[C@H](C)[C@H](CN(C)C(=O)Nc1ccc3c(c1)OCO3)O2
    i	i	i	i
C[C@@H]1CN([C@@H](C)CO)C(=O)c2cccc(NC(=O)C3CCOCC3)c2O[C@H]1CN(C)C(=O)Nc1ccccc1
    i	i	i	i
C[C@@H]1CN([C@H](C)CO)C(=O)c2cccc(NC(=O)c3ccc(-c4nccs4)cc3)c2O[C@@H]1CN(C)C(=O)Nc1ccc(F)cc1
    i	i	.	i
C[C@@H]1CN([C@@H](C)CO)C(=O)c2cc(NS(C)(=O)=O)ccc2O[C@H]1CN(C)C(=O)Nc1ccc2c(c1)OCO2
    i	i	i	i
C[C@@H]1CN([C@H](C)CO)C(=O)c2cc(NC(=O)Nc3ccc4c(c3)OCO4)ccc2O[C@H]1CN(C)S(=O)(=O)c1ccc(F)cc1
    i	i	i	i
COC(=O)/C=C/c1cc(O)ccc1O
    i	i	i	i
C[C@@H]1CN([C@H](C)CO)C(=O)Cc2cc(NC(=O)CCC(F)(F)F)ccc2O[C@@H]1CN(C)C(=O)Nc1ccccc1
    i	i	i	i
COC(=O)C(C(CO)Cc1ccc(O)c(OC)c1)C(O)c1ccc(O)c(OC)c1 (stereo not drawn)
    i	i	i	i
C[C@@H]1CCCCO[C@H](CN(C)Cc2ccc(C(F)(F)F)cc2)[C@H](C)CN([C@H](C)CO)C(=O)c2cc(NC(=O)Cc3ccccc3)ccc2O1
    i	i	.	i
COc1cc(OC)cc(-c2nnc(SCC(=O)N3c4ccccc4Sc4ccccc43)o2)c1
    i	i	i	i
Cc1ccc2[nH]c(C)c(CCNC(=O)Nc3ccc(Cl)cc3)c2c1
    i	i	i	i
CC(C)NC(=O)N(C)C[C@@H]1Oc2c(NC(=O)C3CCOCC3)cccc2C(=O)N([C@@H](C)CO)C[C@@H]1C
    i	i	i	i
CS(=O)(=O)N1N=C(c2cccc(NS(=O)(=O)c3ccccc3)c2)CC1c1ccco1 (stereo not drawn)
    i	i	i	i
Cc1cc(C)c(NC(=O)CN(c2ccccc2)S(=O)(=O)N(C)C)c(C)c1
    i	i	i	i
Cc1ccc(NC2=CC(=O)c3sc(C)nc3C2=O)cc1
    i	i	i	i
COc1ccc(/C=C/C(=O)O[C@]2(C)CCC3C(C(=O)O)=CO[C@@H](O[C@@H]4O[C@H](CO)[C@@H](O)[C@H](O)[C@H]4O)[C@@H]32)cc1 (stereo partly drawn)
    i	i	.	i
C[C@@H]1CN([C@H](C)CO)C(=O)c2cccc(NC(=O)c3ccncc3)c2O[C@H]1CN(C)S(=O)(=O)c1ccc(F)cc1
    i	i	i	i
Cc1ccc(S(=O)(=O)N(C)Cc2nc(-c3ccccn3)no2)cc1
    i	i	i	i
CNC[C@@H]1OCCCC[C@H](C)Oc2ccc(NC(=O)Cc3ccccc3)cc2C(=O)N([C@H](C)CO)C[C@@H]1C
    i	i	i	i
COc1ccc(C)cc1NC(=O)CN(c1cc(C)cc(C)c1)S(C)(=O)=O
    i	i	i	i
O=[N+]([O-])c1cccc(-c2nn(-c3ccccc3)cc2CNCc2ccccc2)c1
    i	i	i	i

Bioassay records from PubChem.
